KCNQ2 block = KCNQ2 potassium channel inhibitors, primary screen, cell-based, CHO-K1, FluxOR thallium flux, B-score (AID 2156); 20 min; active compounds read low; only compounds with negative scores are shown here; some inactives read as strong as hits; actives 1.1% (n = 310,000); B-score at 10 µM;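 active means fluorescence ratio B-score at most minus 3 library SDs, with starting brightness B-score within 2 library SDs, cut at about -5.5 in these data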
Target sequence (O88943 whole entry, looked up): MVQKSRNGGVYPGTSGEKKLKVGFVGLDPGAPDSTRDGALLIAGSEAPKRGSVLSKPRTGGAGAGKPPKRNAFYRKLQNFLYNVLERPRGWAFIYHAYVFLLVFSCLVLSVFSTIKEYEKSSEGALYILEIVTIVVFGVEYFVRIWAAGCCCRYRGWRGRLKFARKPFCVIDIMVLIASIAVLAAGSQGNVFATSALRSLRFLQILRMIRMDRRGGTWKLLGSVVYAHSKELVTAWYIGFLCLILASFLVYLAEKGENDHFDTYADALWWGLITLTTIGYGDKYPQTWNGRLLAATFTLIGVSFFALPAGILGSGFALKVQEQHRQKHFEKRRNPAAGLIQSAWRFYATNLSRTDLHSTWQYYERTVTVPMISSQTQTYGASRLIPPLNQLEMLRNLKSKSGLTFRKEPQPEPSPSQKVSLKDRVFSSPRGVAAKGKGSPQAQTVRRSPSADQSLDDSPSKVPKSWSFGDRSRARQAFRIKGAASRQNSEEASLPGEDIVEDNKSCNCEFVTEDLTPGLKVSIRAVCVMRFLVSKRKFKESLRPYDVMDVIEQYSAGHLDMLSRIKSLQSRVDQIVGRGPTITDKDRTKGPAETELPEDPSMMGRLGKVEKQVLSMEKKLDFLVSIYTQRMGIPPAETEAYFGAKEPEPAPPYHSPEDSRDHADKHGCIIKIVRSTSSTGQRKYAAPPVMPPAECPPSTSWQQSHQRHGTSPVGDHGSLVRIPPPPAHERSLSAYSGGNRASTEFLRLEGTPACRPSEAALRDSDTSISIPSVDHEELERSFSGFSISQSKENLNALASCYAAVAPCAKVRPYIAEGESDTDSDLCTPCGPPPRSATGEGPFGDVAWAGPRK
KCNQ2 block baseline = further read-out of KCNQ2 block, marked with its call; B-score; measured here: initial fluorescence intensity artifact check;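 brightness before thallium and not channel activity; 0 = typical well and far values either way flag optical interference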
Numbers without * were called inactive; i = inactive.

SMILES	KCNQ2 block	KCNQ2 block baseline
COc1ccc(C(=O)NC(=S)NCc2ccc(-c3nc4ccccc4o3)cc2)cc1OC	i	0.76
Cc1cc(CNC(=O)C(C)n2cc([N+](=O)[O-])cn2)c2ccccc2n1 (configuration not stated)	i	-0.01
CCOc1ccc(CCNC(=O)CCCn2c(=O)c3cccn3c3cccnc32)cc1OCC	i	0.05
Cc1ccc(CCN2CC(C(=O)NCc3cccnc3)CC2=O)cc1 (configuration not stated)	i	-0.67
CCOC(=O)c1ccc(NC(=S)N2CCCC2)cc1	i	-0.9
COc1ccc(NC(=O)Cc2c(Cl)cccc2Cl)cn1	i	1.93
COc1ccc2oc(C(=O)OCC(=O)Nc3ccc(NC(C)=O)cc3)c(C)c2c1	i	2.29
COc1ccc(C(=O)Nc2ccc(S(=O)(=O)Nc3onc(C)c3C)cc2)cc1	i	2.4
COc1ccc(-c2cc3c(=O)n(CC(=O)NCc4cccnc4)ncn3n2)cc1	i	1.07
Cc1cc(C)cc(NC(=O)C2(c3cccs3)CCOCC2)c1	i	3.38
CCOC(=O)Cn1c(=O)oc2cc(S(=O)(=O)NCCc3ccc(OCC)c(OCC)c3)ccc21	i	0.88
Cc1cc(C)c(S(=O)(=O)c2ccccc2)c(OC(=O)c2c(Cl)cccc2Cl)n1	i	-0.02
COc1ccc(-c2nn(C)c(=O)c3ccccc23)cc1NC(=O)COc1ccc(C)cc1	i	0.04
CC(C)OC(=O)CSc1nnnn1-c1ccc2c(c1)OCCO2	i	0.52
CCC(=O)Nc1nonc1-c1nc2ccccc2n1Cc1cccc2ccccc12	i	0.07
S=C(NCCCN1CCOCC1)N1CCN(c2nc(-c3ccccc3)cs2)CC1	i	-0.6
Cc1cc(C)n(-c2nc3ccccc3nc2Nc2ccc3c(c2)OCO3)n1	i	0.09
COc1ccc(CCNC(=O)C2(C)CCC(=O)N2Cc2ccc(C)cc2)cc1OC (configuration not stated)	i	1.25
CN1CCN(c2ccc(CNC(=O)c3cc4ccccc4o3)cc2)CC1	i	0.48
O=C(NCCN1CCOCC1)c1cccc(S(=O)(=O)N2CCCCC2)c1	i	-0.16
O=C(CCNS(=O)(=O)c1cccs1)N1CCCCCC1	i	-0.47
COc1cc2[nH]c(C(=O)NCc3ccccc3)cc2c(OC)c1OC	i	0.07
CCN(CC(=O)NCc1ccc(Cl)cc1)C(=O)CSc1ccccc1	i	-1.34
CC(=O)N1CCCc2cc(S(=O)(=O)N3CCCC(C(=O)Nc4cccc(C)c4)C3)ccc21 (configuration not stated)	i	0.38
O=C1OC(c2ccccc2)=C/C1=C/N1CCOCC1	i	0.79
CC(c1ccccc1)C(Cc1nc2ccccc2[nH]1)c1nc2ccccc2[nH]1 (configuration not stated)	i	-1.94
CC(C)Nc1c([N+](=O)[O-])c(=O)oc2ccccc12	i	0.95
COc1ccc(Br)cc1C(=O)Nc1cccc(NC(=O)c2ccco2)c1	i	-1.32
Cc1cccc(OC(C)C(=O)NC2CCS(=O)(=O)C2)c1C (configuration not stated)	i	1.21
COc1ccc(/C=C/C(=O)C23CC4CC(CC(C4)C2)C3)cc1CN1CCOCC1	i	-0.58
Cc1ccccc1-c1nc(CN(C)C(C)c2ccon2)c(C)o1 (configuration not stated)	i	0.03
CC(C)CCn1c(O)c(N=NC(=O)Cn2ccc(C(F)(F)F)n2)c2ccccc21	i	0.18
CCCn1c(N2CCN(CC(=O)NCc3cccs3)CC2)nc2ccccc21	i	-2.48
Cn1nc([N+](=O)[O-])nc1Sc1ccc(C(C)(C)C)cc1	i	-0.03
COc1cccc(=O)c2c(C)n(-c3cc(C)cc(C)c3)c(C)c12	i	1.33
CN1CC2(C)OC(=O)C(Cl)=C2CC1c1ccccc1 (configuration not stated)	i	0.81
O=C(NCC(c1ccco1)N1CCc2ccccc21)c1cccc(F)c1 (configuration not stated)	i	0.2
Cc1ccc(N2CC(O)=C(c3nc4ccccc4c(=O)[nH]3)C2=N)cc1C	i	0.43
CCSc1nc2c(c(=O)[nH]1)C(c1ccccn1)C1=C(CC(C)(C)CC1=O)N2 (configuration not stated)	i	0.73
CCNc1nc(NCC)nc(N(n2cnnc2)S(=O)(=O)c2ccc(C)cc2)n1	i	-0.28
CCn1c(=O)n(CC)c2cc(S(=O)(=O)Nc3cc(C)cc(C)c3C#N)ccc21	i	-0.27
CCOC(=O)C1CCN(C(=O)CCC(=O)NCCc2ccc(Cl)cc2)CC1	i	-1.01
O=C1CC(N2CCC(c3nc4ccccc4o3)CC2)C(=O)N1c1ccc(F)cc1 (configuration not stated)	i	1.11
CC1CCCCN1CCNC(=O)Cn1nc(-c2ccccc2)ccc1=O (configuration not stated)	i	-0.07
Cc1cc(C)nc(N/N=C/c2ccncc2)n1	i	0.94
Cc1ccc(NS(=O)(=O)c2c(C)[nH]c(=O)[nH]c2=O)cc1F	i	0.2
Nc1nnnn1/N=C/c1ccccc1	i	-1.43
CN(C)S(=O)(=O)c1cccc(COc2ccccc2C(=O)Nc2ccccc2)c1	i	-0.01
CC1=CC2=NC(=O)/C(=C/c3coc4ccccc4c3=O)C(=N)N2O1	i	6.28
N#Cc1ccc(NCCc2ccccn2)c([N+](=O)[O-])c1	i	-0.02
CCCCN(CCCC)CCCNC(=O)C12CN(Cc3ccccc3)CC1C(c1cccc([N+](=O)[O-])c1)=NO2 (configuration not stated)	i	-0.7
COC(=O)Cn1c2ccccc2c2nc(C)sc21	i	1.63
COc1ccc(N2CCN(C3CCCCC3NS(=O)(=O)c3ccc(Cl)cc3)CC2)cc1 (configuration not stated)	i	0.73
CCOC(=O)C1=C(C)NC2=C(C(=O)CC(c3cccs3)C2)C1c1cccs1 (configuration not stated)	i	-0.47
CCOC(=O)c1c(NC(=O)C2CC2)sc(C)c1CC	i	2.37
C=C(Br)Cn1c(CCCC)nc2ccccc21	i	1.17
Cc1ccc(N=C2N=C(N)c3ccccc32)cc1C	i	0.86
CCN(CC)c1ccc(NC(=O)CN2CCN(CC(=O)Nc3ccccc3OC)CC2)cc1	i	-0.21
COc1ccc(-c2[nH]ncc2/C=N/NC(=O)c2ccc(Br)cc2)c(OC)c1	i	-1.34
COc1ccc(OC)c(NC(=O)CN2C(=O)C3(OCCCO3)c3ccccc32)c1	i	-0.98

New compounds follow:
SMILES	KCNQ2 block	KCNQ2 block baseline
CCN(C1CCCCC1)S(=O)(=O)c1cc2c3c(c1)CCN3C(=O)CC2	i	-0.62
CCN(C(=O)CCc1nnc2ccc(N3CCC4(CC3)OCCO4)nn12)c1ccccc1	i	-1.32
CS(=O)(=O)N(CC(=O)NCCSCc1ccccc1)c1ccccc1	i	1.69
CCOc1ccc(-c2nnn(CC(=O)NCc3ccco3)n2)cc1OCC	i	1.48
CC(NC(=O)[C@H](C)NC(=O)C1CC(=O)N(c2ccc3c(c2)OCO3)C1)c1ccccc1 (some centres not stated)	i	-0.76
Cc1ccc(S(=O)(=O)Nc2ccc3c(c2)n(C)c(=O)n3C)cc1	i	1.01
CC1CC(C)CN(c2oc(Cc3ccccc3)nc2C#N)C1 (configuration not stated)	i	-0.17
C=CCn1c(Cn2nnc3ccccc32)nnc1SCC(=O)N/N=C/c1cc(Br)cc(OC)c1O	i	-0.06
COc1ccc(CCC(=O)NCC(=O)OCc2ccccc2)cc1	i	0.04
Cc1ccc(CSCc2ccc(C(=O)NCCCN3CCOCC3)o2)cc1	i	0.24
COc1cc(C2CC(=O)N3CN(Cc4ccco4)CSC3=C2C#N)ccc1OCc1ccccc1 (configuration not stated)	i	0.82
CCNC(=S)NNC(=O)c1ccccn1	i	2.1
CC(C)n1c(C(O)c2ccccc2)nc2ccccc21 (configuration not stated)	i	2.56
CCCOCn1cc(F)c(=O)[nH]c1=O	i	-0.86
C=CCN(c1ccccc1C(=O)O)S(=O)(=O)c1ccc(NC(=O)OC)cc1	i	-1.1
CC1=C(C(=O)OC(C)C)C(c2cn(-c3ccccc3)nc2-c2cccs2)NC(=O)N1 (configuration not stated)	i	0.31
O=C(CSc1nnc(Cc2ccccc2)o1)N1CCOCC1	i	1.14
O=C(NCc1ccc2c(c1)OCO2)C1CC(c2ccccc2O)=NO1 (configuration not stated)	i	-0.4
CCOC(=O)c1c(-c2ccc(C)cc2)cn2ccccc12	i	-0.36
CCOC(=O)c1cc(C)nc(N2CCCCC2)c1C#N	i	0.9
COc1ccc(NC(=O)CCCSc2nc(-c3ccco3)cc(C(F)(F)F)n2)cc1OC	i	-0.17
COc1ccc(C2CC(=O)C=C(NCc3ccc4c(c3)OCO4)C2)cc1 (configuration not stated)	i	-1.29
O=C(CCc1c[nH]c2ccccc12)NCCc1ccc2c(c1)OCCO2	i	0.8
Cc1ccc(Cn2ccc(NC(=O)c3cc(C)on3)n2)cc1	i	1.03
N#C/C(=C\c1cccc(Cl)c1)C(=O)c1ccccc1	i	-0.57
CCC(C)NC(=O)c1c(N)n(/N=C/c2cccnc2)c2nc3ccccc3nc12 (configuration not stated)	i	-0.54
O=C(CCCN1C(=O)C2CCCCN2C1=O)N1CCN(c2ccc([N+](=O)[O-])cc2)CC1 (configuration not stated)	i	2.43
CCCCCN(C(=O)CCC(=O)OC(C)C(=O)Nc1cccc(C#N)c1)c1c(N)n(CCCC)c(=O)[nH]c1=O (configuration not stated)	i	1.81
Cc1oc2c(C)c3oc(=O)c4c(c3cc2c1C)CCCC4	i	-0.34
COc1ccc(-c2noc(=O)n2Cc2ccccc2F)cc1	i	-1.59
COc1ccc(C(=O)N2CCN(C(=O)CC(C)C)CC2)cc1OC	i	0.12
Cc1cc(C)c(NC(=S)N(CCN(C)C)Cc2cccs2)c(C)c1	i	2.31
Cc1cc(C)nc(S/C=C/C(=O)c2ccccc2)n1	i	-0.14
COc1ccc(C(=O)NC(Cc2c[nH]c3ccccc23)C(=O)O)cc1 (configuration not stated)	i	-2.07
O=C(C1=C[C@@H](c2csc3ccccc23)C[C@@H](OCc2ccc(CO)cc2)O1)N1CCN(Cc2ccccc2)CC1	-6.25*	-0.24*
Fc1ccc(CN2CCCN(C(=S)Nc3ccc(F)cc3)CC2)cc1	i	1.67
CC(=O)N=c1sccn1CC(=O)c1ccc([N+](=O)[O-])cc1	i	2.17
COc1ccc(OCC(O)CNC(=O)c2c(-c3ccccc3)noc2C)cc1 (configuration not stated)	i	2.47
Fc1ccc(Br)cc1C1C=C(c2cccnc2)Nc2ncnn21 (configuration not stated)	i	1.14
Cc1ccc(CSc2nnc(SCC(=O)N/N=C/c3c(C)nn(-c4ccccc4)c3C)s2)cc1	i	-2.2
N#Cc1sc2nc(N3CCCCC3)c3c(c2c1N)CCCC3	i	-0.12
CNc1nc(N)c(C(=O)C(C)(C)C)s1	i	0.89
CCn1ccc(C(=O)Nc2ccc(N(C)C(C)=O)cc2)n1	i	-0.33
COc1ccc(N(CC(=O)NCc2ccccc2)S(C)(=O)=O)cc1	i	0.29
Cc1ccc(N=C2NC(=O)/C(=C/c3cccnc3)S2)cc1C	i	0.31
CCc1cccc(Nc2c([N+](=O)[O-])cc(C(=O)N3CC(=O)Nc4ccccc43)cc2[N+](=O)[O-])c1	i	1.47
Cn1c(SCC(=O)NC2CCCC2)nnc1-c1ccc(S(=O)(=O)N2CCOCC2)cc1	i	0.07
CCC(=O)Nc1nnc(-c2cccs2)s1	i	1.29
COCC(=O)Nc1nc(-c2ccccc2)c(C)s1	i	-0.01
Cc1ccc(N(CC(O)CN2CCCCC2)S(=O)(=O)c2ccc(C)cc2)cc1 (configuration not stated)	i	-0.01
O=C(NNC(=O)c1cc(-c2ccccc2)n(-c2ccccc2)n1)c1cccc([N+](=O)[O-])c1	i	0.02
Cc1ccc(S(=O)(=O)/N=C2/NC(=O)/C(=C/c3cc([N+](=O)[O-])ccc3O)S2)cc1	i	1.62
O=C(CN(Cc1cccs1)C(=O)CNS(=O)(=O)c1ccccc1)NCc1ccco1	i	0.22
CCOn1c(=O)c(-c2cccc(Br)c2)[n+]([O-])c2ccccc21	i	1.54
Cn1c(NCCN2CCCCC2)cc(=O)n(C)c1=O	i	0.42

Some of these compounds in order of molecular weight, ascending:
SMILES	KCNQ2 block	KCNQ2 block baseline
CNc1nc(N)c(C(=O)C(C)(C)C)s1	i	0.89
Cc1cc(C)nc(S/C=C/C(=O)c2ccccc2)n1	i	-0.14
CCOC(=O)c1c(NC(=O)C2CC2)sc(C)c1CC	i	2.37
CCn1ccc(C(=O)Nc2ccc(N(C)C(C)=O)cc2)n1	i	-0.33
COc1ccc(NC(=O)Cc2c(Cl)cccc2Cl)cn1	i	1.93
O=C(NCc1ccc2c(c1)OCO2)C1CC(c2ccccc2O)=NO1 (configuration not stated)	i	-0.4
Cc1ccc(N2CC(O)=C(c3nc4ccccc4c(=O)[nH]3)C2=N)cc1C	i	0.43
O=C(CCc1c[nH]c2ccccc12)NCCc1ccc2c(c1)OCCO2	i	0.8
Cc1cc(C)n(-c2nc3ccccc3nc2Nc2ccc3c(c2)OCO3)n1	i	0.09
CCSc1nc2c(c(=O)[nH]1)C(c1ccccn1)C1=C(CC(C)(C)CC1=O)N2 (configuration not stated)	i	0.73
CCOC(=O)C1=C(C)NC2=C(C(=O)CC(c3cccs3)C2)C1c1cccs1 (configuration not stated)	i	-0.47
Cc1ccc(N(CC(O)CN2CCCCC2)S(=O)(=O)c2ccc(C)cc2)cc1 (configuration not stated)	i	-0.01
CN(C)S(=O)(=O)c1cccc(COc2ccccc2C(=O)Nc2ccccc2)c1	i	-0.01
CC(=O)N1CCCc2cc(S(=O)(=O)N3CCCC(C(=O)Nc4cccc(C)c4)C3)ccc21 (configuration not stated)	i	0.38
COc1ccc(N2CCN(C3CCCCC3NS(=O)(=O)c3ccc(Cl)cc3)CC2)cc1 (configuration not stated)	i	0.73
CCOC(=O)Cn1c(=O)oc2cc(S(=O)(=O)NCCc3ccc(OCC)c(OCC)c3)ccc21	i	0.88

Assay outcomes: PubChem, Johns Hopkins Ion Channel Center

Only part of the results is shown. The share of hits here may be higher or lower than overall.
